# NPYLR7 agonist – mosquito NPYLR7 agonism; HEK293T NPYLR7/Galpha15, GCaMP6s calcium fluorescence; activation, % at 10 µM; hit rate 0.15% among 270,000; AID 1259423; in the data active means activation above about 40%;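 further: 0% = vehicle and 100% = reference agonist at the receptor; some compounds past the cut are filed as inactive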
# NPYLR7 agonist max-min – further read-out of NPYLR7 agonist, marked with its call; activation, %; measured here: Max-Min RFU normalised activation; some inactives read as strong as hits;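 span of the calcium signal over five minutes; 0% = vehicle and 100% = native peptide agonist; compound fluorescence can raise it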
# * marks the source's active call; other numbers are inactive results; & = joins results of further samples. A portion of the library, so the mix of outcomes need not match the whole.
# Order of results – NPYLR7 agonist | NPYLR7 agonist max-min
> Cc1cccc(-n2nc(C(C)(C)C)c3c2N(CC(=O)NCc2ccc(F)cc2)C(=O)CSC3c2ccsc2)c1C (stereo not given)
  12.4 | 16.8
> C1=C2CCCN[C@H]2[C@@H]2C[C@H]1[C@H]1CCCCN1C2
  -6.9 | -8.6
> Cc1cc(C)c(C)c(S(=O)(=O)N2CCN(CCOC(c3ccc(F)cc3)c3ccc(F)cc3)CC2)c1C
  5.2 | 1.5
> CC[N+](CC)(CCCNC1=CC(=O)C(NCCC[N+](CC)(CC)Cc2ccccc2)=CC1=O)Cc1ccccc1
  -1.4 | -14.2
> NCC(CS(=O)(=O)O)c1ccc(Cl)cc1 (stereo not given)
  -9.5 | -13.6
> CCCn1c(=O)c2[nH]c(C3CCCC3)nc2n(CCCOC(=O)c2ccc(S(=O)(=O)F)cc2)c1=O
  -0.6 | -27.1
> CSc1ccc(C(=O)C2CCCN(Cc3c[nH]c4ccccc34)C2)cc1 (stereo not given)
  2.6 | -1.1
> CC(C)Nc1nc(N2CCCC2)nc(N2CC3CC(C2)c2cccc(=O)n2C3)n1 (stereo not given)
  -1.1 | -2.9
> NP(N)(=O)NC(=O)c1ccc(F)cc1
  2.9 | 0.0
> CCN(CC)P1(=S)C(N(C)C)=Nc2ccc(Br)cc21 (stereo not given)
  5.9 | 3.2
> CCCN1CCC(NC(C)CCCC(C)C)CC1 (stereo not given)
  4.7 | 3.2
> CC(Cc1ccccc1F)NCc1nc(C2CCCCC2)no1 (stereo not given)
  3.9 | 10.1
> CCn1nc(-c2cccs2)nc2c(=O)n(C)c(=O)nc1-2
  12.2 | 7.3
> Cc1c(C=NN(C)C)c2ccccc2n1C
  7.8 | 7.5
> CCNC(=O)N1CCN2C[C@H](c3ccccc3)[C@@H](C(=O)NC)[C@H]2C1
  3.9 | 7.1
> C=CCCOC(=O)N1C[C@H](C(=O)OCC)[C@H]2c3ccccc3N(CCOC)C(=O)[C@]21C
  -1.3 | 9.5
> CN1[C@H]2CC[C@@H]1CN(C(=O)c1cc(=O)[nH]c(=O)[nH]1)CC2
  1.1 | -4.2
> CCC1(C2=NCCN2)Cc2ccccc2O1 (stereo not given)
  -5.1&-1.0&-4.7 | -10.7&-3.4&-10.8
> COc1c(F)ccc(CN(C)C(C)Cc2cc(C)ccn2)c1F (stereo not given)
  5.8 | 3.8
> c1ccc(NC2=NCCS2)cc1
  4.2 | 1.5
> CCOC(=O)[C@H]1CN(C(=O)c2cc3ccccc3s2)[C@]2(C)C(=O)Nc3ccccc3[C@H]12
  27.7 | 23.7
> CCCN1CC[C@@H]2c3cc(O)ccc3CC[C@@H]21
  2.7 | -32.1
> CC1CN(c2ccc(N)cc2)CC[N+]1(C)C (stereo not given)
  7.5 | 4.6
> C=CCN1C(=O)NC(=O)/C(=C\c2ccc(-c3ccccc3[N+](=O)[O-])o2)C1=O
  -9.7 | -16.6
> CCCCCC(C)NCc1cnc(SC)nc1N(C)C1CCN(C)CC1 (stereo not given)
  2.3 | -1.4
> CCC1(c2ccc(N)cc2)CCC(=O)NC1=O (stereo not given)
  0.3&-11.3&-1.8&7.7 | -3.8&-16.0&-4.9&-4.4
> O=C(Nc1ccc(F)cc1F)C(C1CCCC1)N1CCN(C(=O)COc2ccc(Cl)cc2)CC1 (stereo not given)
  4.7 | 2.6
> CN1CC(=O)N(Cc2ccc(Cn3nc(C(=O)Nc4ccc(C(N)=O)cc4)c4ccccc43)cc2)c2ccccc2C1=O
  26.5 | 25.5
> CCCSc1ncc(CN2C[C@H]3C[C@H](O)[C@@H](O)C[C@H]3C2)cn1
  7.7 | 4.4
> COc1cc2c(cc1O)[C@@H]1Cc3ccc(OC)c(O)c3CN1CC2
  -5.1 | -8.1
> CC(=O)N1CC[N+](C)(C)CC1
  10.0 | -1.7
> COCCNC(=O)C(C1CCCC1)N1CCN(C(=O)Cc2cccs2)CC1 (stereo not given)
  -2.8 | 0.0
> O=C(C1COc2ccccc2O1)N1CCN(CCOC(c2ccccc2)c2cccc(C(F)(F)F)c2)CC1 (stereo not given)
  12.5 | 17.8
> CCOP(=O)(CCCC(=O)O)OCC
  -5.7 | -13.6
> COCCNC(=O)CN1C(=O)CSC(c2ccc3c(c2)OCO3)c2c(C(C)(C)C)nn(-c3cccc(C)c3)c21 (stereo not given)
  4.4 | 4.6
> O=C(c1cc(F)ccc1F)C1CCCNC1 (stereo not given)
  0.1 | -3.4
> O=C(O)[C@]12CNC[C@H]1CN(c1cccc(Cl)n1)C2
  0.7 | -0.9
> Cc1ccc(-c2nc(CN3C[C@@H]4C[C@@H](C3)c3cccc(=O)n3C4)c(C)o2)o1
  -8.1 | -9.9
> Cc1nc(C)c(CC(=O)N2CCCC(N3CCN(c4ccccc4C)CC3)C2)s1 (stereo not given)
  7.7 | 7.5
> CN1CCc2nc(N)c(C#N)c(-c3ccccc3Cl)c2C1
  -3.1 | 3.5
> O=C(Nc1nccs1)[C@H]1CN2CCC1C[C@@H]2Cn1cc(-c2ccccn2)nn1 (stereo not given in full)
  -11.4 | -14.2
> O=C(Cn1cc(C(F)(F)F)ccc1=O)N1CCC2(CCCNC2)C1 (stereo not given)
  7.3 | 4.2
> Cc1ccnc(CC(C)N(C)Cc2ccc(C#CC(C)(C)O)s2)c1 (stereo not given)
  1.9 | 15.7
> O=C(O)c1cn(Cc2ccccc2C(F)(F)F)nn1
  8.0 | 5.9
> O=C(c1ccc2ncsc2c1)N1C[C@H](c2ccccc2)[C@@H]2[C@H]1C1CCN2CC1
  9.5 | 8.4
> Cc1ccccc1-n1cc(C2=CCN(CC(=O)Nc3ccn(C)n3)CC2)cn1
  20.7 | 12.5
> CN1C(=O)C2(CCCN(Cc3cccnc3N)C2)c2ccccc21 (stereo not given)
  0.4 | 15.1
> CC1=C(C(=O)OCc2ccccc2)C2(C(=O)Nc3ccccc32)C(C(=O)OC(C)C)C(=N)O1 (stereo not given)
  -5.0 | -8.2
> Cc1ccnc(CC(C)N(C)Cc2ccc(Sc3nncn3C)o2)c1 (stereo not given)
  2.0 | -1.0
> COC(=O)C(CCSC)NC(=O)c1cn(C2CCCCC2)nn1 (stereo not given)
  15.4 | 5.7
> CCOC(=O)c1c(C)n(Cc2ccccc2)c2cc(Br)c(O)cc12
  10.5 | 12.0
> O=C(O)C1C2CCC3(COC(=O)C13)O2 (stereo not given)
  -1.1 | -0.8
> N=C1c2ccccc2CN1CCCN1CCOCC1
  -6.0 | -6.5
> O=C1CCCC2C3CC(CN12)[C@@H]1CCCCN1C3 (stereo not given in full)
  -3.4&4.7 | -10.8&1.5
> COc1ccccc1CC(=O)N1CCN(Cc2ccc(-c3noc(-c4cccs4)n3)cc2)CC1
  3.5 | 0.4
> Cc1ccc(Cn2ccccc2=N)cc1
  1.1 | -2.0
> CN1CC[C@@]23CCCCC2C1Cc1ccc(O)cc13 (stereo not given in full)
  3.5 | 1.6
> N=c1sccn1Cc1ccccc1
  -1.3 | 11.4
> O=C(COc1ccc(Cl)cc1)N1CCCC(N2CCN(c3ccccc3F)CC2)C1 (stereo not given)
  -2.0 | 3.2
> C(=NNC1=NCCCCC1)c1c[nH]c2ccccc12
  -14.1 | -19.8

# Going on with the list.
# Order of results – NPYLR7 agonist | NPYLR7 agonist max-min
> CC(C)CN(Cc1cc(NC(=O)CC(C)(C)C)ccc1N(C)C1CCN(C)CC1)C(=O)c1ccccc1Cl
  4.4 | 6.1
> O=C(Nc1cc(F)ccc1F)c1cn(Cc2ccccc2)c2ncccc12
  -1.2 | -3.2
> CC1CN=C(Nc2cc([N+](=O)[O-])ccc2Cl)S1 (stereo not given)
  17.3 | 16.6
> Cc1ccccc1CC(=O)N1CCN(Cc2cccc(-c3noc(-c4cccc(C(F)(F)F)c4)n3)c2)CC1
  9.2 | 7.3
> Cc1ccc2c(c1)Cc1c(C(=O)NC3CCCCC3)nn(-c3ccc(Cl)cc3Cl)c1-2
  -9.4 | -14.0
> CC1CCC(NC(=O)C2CCCCC2C(=O)N2CCC(C#N)(c3ccccc3)CC2)CC1 (stereo not given)
  -6.6 | -14.7
> CCN1C[C@]2(C)CC[C@H](OC)[C@]34C5C[C@@H]6CC[C@@](O)(C5C(=O)O6)C(C13)[C@@H](OC(=O)c1ccccc1)C24
  5.3 | 6.9
> O=C(CN1CCN(C(=O)Cc2csc(N3CCCC3=O)n2)CC1)Nc1cccc(F)c1
  4.0 | 1.6
> CCOC(=O)c1c(CN2CCC(C(=O)OCC)(c3ccccc3)CC2)n(-c2ccccc2)c2cc(Br)c(OC)cc12
  -5.4 | -9.5
> CC12NC(Cc3ccccc31)c1ccccc12 (stereo not given)
  -0.5 | -3.6
> CCN1CCN(Cc2csc(C)c2C)CC1
  6.4 | 4.7
> CC(C)Oc1cccc(C(=O)C2CCCN(C3CCSCC3)C2)c1 (stereo not given)
  3.8 | 3.3
> O=C1CCO1
  4.1 | 2.0
> O=C(Cc1cccs1)N1C2CCC(O)(CC2)C1CN1CCOCC1 (stereo not given)
  10.1 | 21.9
> COc1ccc(CCN(Cc2ccc(C)o2)C(=O)CN(CCN2CCCCC2)C(=O)Cc2ccccc2)cc1OC
  0.8 | 2.4
> O=C(Cc1cccs1)N1CCN(C(c2ccccc2)c2ccc(Cl)cc2)CC1 (stereo not given)
  -0.5 | -6.0
> O=C(c1ccc(-c2ccccc2)c(F)c1)C1CCCNC1 (stereo not given)
  -0.1 | -4.9
> CCOP(=O)(C#CC(C)(C)C)C1(O)CCCCC1 (stereo not given)
  0.6 | 34.3
> CCC(CC)NC(C)Cc1cc(C)[nH]n1 (stereo not given)
  7.8 | 6.4
> O=C(Nc1ccc2[nH]cc(CCN3CCCC3)c2c1)c1c(F)c(F)c(F)c(F)c1F
  1.1 | 8.0
> C=CCS(=O)(=O)N1CCN2CCNC(=O)C2C1 (stereo not given)
  0.0 | -1.0
> CCOC(=O)N1CCN(C2CCCN(C(=O)Cc3ccccc3OC)C2)CC1 (stereo not given)
  19.3 | 6.1
> COC(=O)C1C2c3ccccc3OCC23CC2N(c4ccccc4)C12O3 (stereo not given)
  7.4 | 4.7
> N#CC(C#N)=Cc1ccc([N+](=O)[O-])c(O)c1
  1.6 | 22.5
> CCC(C)OC(=O)c1c(N)n(CCCOC)c2nc3ccccc3nc12 (stereo not given)
  -0.9 | 3.2
> Cc1cccnc1CC(C)N(C)Cc1nc[nH]c1C (stereo not given)
  7.0 | -0.8
> CCOC(=O)c1ccc(-n2c(C)cc(C=C3C(=O)N(C)C(=O)N(C)C3=O)c2C)cc1
  -12.1 | -16.2
> C[N+]1(C)CCc2cc3c(cc2[C@H]1[C@@H]1OC(=O)c2c1ccc1c2OCO1)OCO3
  7.5 | -8.8
> CN(C)[C@@H]1C[C@@H](CO)N(C(=O)Cc2cccnc2)C1
  4.2 | 1.7
> NC(=O)C(F)(Br)C(F)(F)F (stereo not given)
  -1.5 | -10.4
> Cc1cc(NC(=O)c2cccn(Cc3ccc(C(F)(F)F)cc3)c2=O)no1
  13.0 | 9.0
> Cc1c(O)c(O)cc2c1CC=C1[C@@]2(C)CC[C@@]2(C)C3C[C@](C)(C(=O)O)CC[C@]3(C)CC[C@]12C (stereo not given in full)
  -9.4 | -11.4
> N=C1c2ccccc2CN1CC(=O)c1ccccc1
  0.9 | -1.4
> CC(NC1CCC2CCCCC2C1)C(O)c1ccc(O)cc1 (stereo not given)
  -0.5 | -4.2
> Cc1ccc(C)c(Cn2cccc(C(=O)Nc3cccc(C)c3C)c2=O)c1
  22.5 | 18.9
> CC(N)[C@H](O)c1ccc(O)c(O)c1 (stereo not given in full)
  0.7 | -28.4
> CN1CC[C@@]2(C)c3cc(O)ccc3N(C)C12 (stereo not given in full)
  -5.6 | 7.7
> O=C(CCl)c1ccc(O)c(O)c1
  -5.2 | -12.6
> Brc1ccc(C2N3CCCN23)cc1 (stereo not given)
  -0.7 | -1.0
> CCC(Cl)C(=O)N1CCN(CCOC(c2ccccc2)c2ccccc2)CC1 (stereo not given)
  3.5 | -0.5
> O=C1Nc2ccccc2C12CCN(Cc1ccc3c(c1)OCCO3)CC2
  -1.4 | 10.2
> CCC(NCCOC)c1nc2ccccc2c(=O)n1-c1cccc(Cl)c1 (stereo not given)
  3.7 | 6.4
> CCN(CC)P1(=S)c2c(C)nn(-c3ccccc3)c2N=C(c2ccc(F)cc2)N1C (stereo not given)
  -0.7 | -2.9
> O=c1c2ccccc2[se]n1-c1ccccc1
  -1.6&19.5&-6.6 | -7.9&19.0&-8.6
> CN(CCc1ccccc1)C1CCCN(C(=O)COc2ncnc3ccccc23)C1 (stereo not given)
  -2.2 | -7.3
> CC[C@@H](CO)NC(=O)[C@@H]1C=C2c3cccc4[nH]cc(c34)C[C@H]2N(C)C1
  -4.7&3.2&10.6 | -9.5&-2.4&-20.8
> O=C(Nc1cc(F)ccc1F)N1CCN(CCOC(c2ccc(F)cc2)c2ccc(F)cc2)CC1
  3.3 | -0.6
> Cc1ccccc1OCC(=O)N1CCN(Cc2cccc(-c3noc(-c4cccnc4)n3)c2)CC1
  3.3 | 2.8
> CCOC(=O)c1cncn1C(C)c1ccccc1 (stereo not given)
  -1.2 | -8.1
> c1cncc([C@H]2CCCCN2)c1
  -1.0 | -2.0
> CCc1cnc(C)nc1N(C)Cc1cnc(NC)nc1
  2.4 | -1.3
> CCn1cnnc1CCNC(C)Cc1ccccc1F (stereo not given)
  12.8 | 9.8
